Compound activity: PubChem, Broad Institute
Vaccinia inh – blocks a specific stage of Vaccinia orthopoxvirus infection, primary screen, cell-based, single point; Vaccinia-infected cells, mCherry/Venus stage reporter fluorescence; stronger effect = lower value; some inactives read as strong as hits; activity change (mCherry), % (test concentration not listed); 89,000 tested, 0.01% active; AID 1053133, 2014;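 active = mCherry past -33% and 40 or more points under the early reporter, replicates agreeing; inconclusive = past -33% without that gap or agreement; tested in A549 cells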;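 note: scaled between vehicle wells and reference inhibitor wells; 23 nL library stock went into each well; one replicate is shown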
Vaccinia inh Venus – further read-out of Vaccinia inh, marked with its call; activity change (Venus), %; measured here: Venus reporter, other viral stage;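 negative = less Venus signal; first of two replicates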
Active calls of the source: *; ? = inconclusive; . = no result given; & = joins results of further samples.

Values run as follows: Vaccinia inh, Vaccinia inh Venus
CCCNC(=O)C[C@@H]1CC[C@@H]2[C@H](COC[C@H](O)CN2S(=O)(=O)c2ccc(Oc3ccccc3)cc2)O1
→ -14.3, -9.6
Cc1noc(C)c1NC(=O)N(C)C[C@@H]1Oc2ccc(NC(=O)NC(C)C)cc2C(=O)N([C@@H](C)CO)C[C@@H]1C
→ 16.3, 17.8
CNC[C@@H]1Oc2ccc(NC(=O)CCN3CCOCC3)cc2CC(=O)N([C@H](C)CO)C[C@@H]1C
→ 10.4, 19.9
CCCNC(=O)N[C@@H]1C=C[C@@H](CC(=O)NCCc2ccccc2)O[C@H]1CO
→ 14.4, 7.2
CCCNC(=O)N1C[C@@H]2[C@H](c3ccccc31)[C@H](CO)N2Cc1ccc(F)cc1
→ 10.8, 5.5
C[C@H]1CN([C@@H](C)CO)C(=O)c2cccc(NC(=O)Nc3ccc(F)cc3)c2O[C@H]1CN(C)Cc1ccc(Cl)c(Cl)c1
→ ?, .
Cc1cccc(S(=O)(=O)N2[C@@H]3CNC[C@H]2C3c2ccc(-c3ccccc3C)cc2)c1 (stereo partly specified)
→ -2.6&4.3, -3.7&3.8
C[C@@H]1CCCCO[C@H](CN(C)Cc2ccc(C(F)(F)F)cc2)[C@@H](C)CN([C@@H](C)CO)C(=O)c2cc(NC(=O)Nc3ccc4c(c3)OCO4)ccc2O1
→ ?, .
C[C@@H]1CCCCO[C@H](CN(C)Cc2ccc(C(=O)O)cc2)[C@@H](C)CN([C@H](C)CO)C(=O)c2cc(NC(=O)C3CCCCC3)ccc2O1
→ 20.3, 13.5
C[C@H](CO)N1C[C@H](C)[C@H](CN(C)Cc2ccc(C(=O)O)cc2)Oc2cc(/C=C/c3ccccc3)ccc2S1(=O)=O
→ 3.5, 4.0
C[C@@H]1CN([C@H](C)CO)C(=O)c2cc(NC(=O)Nc3ccc4c(c3)OCO4)ccc2O[C@@H]1CN(C)Cc1ccc(Oc2ccccc2)cc1
→ -26.7, -24.6
COc1ccc(S(=O)(=O)Nc2ccc3c(c2)C(=O)N([C@@H](C)CO)C[C@H](C)[C@H](CN(C)Cc2ccc(C(F)(F)F)cc2)O3)cc1
→ -23.4, -13.4
C[C@H](CO)N1C[C@H](C)[C@H](CN(C)C(=O)Nc2ccc3c(c2)OCO3)Oc2ncc(-c3cncnc3)cc2C1=O
→ 20.8, 20.2
COc1ccc(NC(=O)Nc2ccc3c(c2)C(=O)N([C@H](C)CO)C[C@H](C)[C@@H](CN(C)C(=O)Nc2ccc(F)cc2)OCCCC[C@@H](C)O3)cc1
→ 9.2, 14.3
C[C@H]1CCCCO[C@H](CN(C)C(=O)CCCN(C)C)[C@@H](C)CN([C@@H](C)CO)C(=O)c2cc(NS(=O)(=O)c3ccc(F)cc3)ccc2O1
→ 7.3, 6.2
COCCN(C[C@H]1[C@H](c2ccccc2)[C@@H](CO)N1C(C)=O)C(=O)c1ccccc1
→ 9.8, 18.0
O=C(N[C@H]1CC[C@@H](CCNS(=O)(=O)c2cccc(Cl)c2)O[C@@H]1CO)c1ccccc1
→ -23.8, -17.6
CC(C)NC(=O)Nc1ccc2c(c1)C(=O)N([C@H](C)CO)C[C@H](C)[C@@H](CN(C)Cc1ccc(C(=O)O)cc1)OCCCC[C@@H](C)O2
→ 18.8, 2.0
CN(C)CC#Cc1ccc([C@@H]2[C@@H](CO)N3CCCCN(C(=O)C4CCC4)C[C@H]23)cc1
→ 12.6, 9.3
O=C(C[C@@H]1C[C@@H]2c3cc(NC(=O)CC4CC4)ccc3O[C@@H]2[C@H](CO)O1)NCc1ccc(-c2ccccc2)cc1
→ 6.3, 3.2
CC=Cc1ccc2n(c1=O)C[C@H]1[C@H](CO)[C@@H](C(=O)NC3CCC3)N(C(=O)C3CC3)[C@@H]21 (mixture of isomers)
→ 10.3, 8.4
CCCN(C)C[C@H]1Oc2cc(-c3ccc(C)cc3)ccc2S(=O)(=O)N([C@H](C)CO)C[C@H]1C
→ -14.3, -9.3
O=C(C[C@@H]1CC[C@@H](NC(=O)c2ccccc2)[C@H](CO)O1)NCc1ccc(Oc2ccccc2)cc1
→ -13.5, -12.5
O=C(C[C@H]1CC[C@H](NC(=O)CCN2CCCCC2)[C@H](CO)O1)NCc1ccc(Cl)c(Cl)c1
→ -10.6, 0.2
C[C@@H]1CN([C@@H](C)CO)C(=O)c2cccc(NC(=O)CCCCCC(=O)Nc3ccccc3N)c2O[C@H]1CN(C)Cc1ccc2c(c1)OCO2
→ ?, .
CO[C@H]1CN(C)C(=O)c2ccc(NC(C)=O)cc2OC[C@H](C)N(Cc2cccc(F)c2)C[C@@H]1C
→ 5.4, 9.3
N#C[C@@H]1[C@@H](c2ccccc2)[C@@H](CO)N1C(=O)C1CCCC1
→ 8.6, -2.5
COc1ccc(CN2C[C@H](O)COC[C@@H]3O[C@H](CC(=O)NCCN4CCCC4)CC[C@H]32)cc1
→ 8.2, 11.8
COCC(=O)N1CC2(CCN(C(=O)NC(C)C)CC2)c2c(n(C)c3cc(OC)ccc23)[C@H]1CO
→ 6.2, -2.7
C[C@@H]1CN([C@H](C)CO)C(=O)Cc2cc(NC(=O)Cc3cn(C)c4ccccc34)ccc2O[C@H]1CN(C)Cc1ccc(C(=O)Nc2ccccc2N)cc1
→ -6.1, 11.3

A second format for some results above:
| mol | Vaccinia inh | Vaccinia inh Venus |
| --- | --- | --- |
| C[C@H](CO)N1C[C@H](C)[C@H](CN(C)C(=O)Nc2ccc3c(c2)OCO3)Oc2ncc(-c3cncnc3)cc2C1=O | 20.8 | 20.2 |
| COc1ccc(NC(=O)Nc2ccc3c(c2)C(=O)N([C@H](C)CO)C[C@H](C)[C@@H](CN(C)C(=O)Nc2ccc(F)cc2)OCCCC[C@@H](C)O3)cc1 | 9.2 | 14.3 |
| C[C@H]1CCCCO[C@H](CN(C)C(=O)CCCN(C)C)[C@@H](C)CN([C@@H](C)CO)C(=O)c2cc(NS(=O)(=O)c3ccc(F)cc3)ccc2O1 | 7.3 | 6.2 |
| COCCN(C[C@H]1[C@H](c2ccccc2)[C@@H](CO)N1C(C)=O)C(=O)c1ccccc1 | 9.8 | 18.0 |

(continued)
Values run as follows: Vaccinia inh, Vaccinia inh Venus
O=C(Nc1cc(F)ccc1F)N[C@H]1CC[C@H](CC(=O)N2CCc3ccccc3C2)O[C@H]1CO
→ -23.7, -8.1
CNC[C@@H]1Oc2cc(C#Cc3cccnc3)ccc2S(=O)(=O)N([C@@H](C)CO)C[C@@H]1C
→ 13.0, 1.3
C[C@@H]1CN([C@H](C)CO)C(=O)c2cc(NC(=O)CCC(F)(F)F)ccc2O[C@@H](C)CCCCO[C@@H]1CN(C)Cc1ccc(C(=O)O)cc1
→ 17.9, 18.6
Cc1noc(C)c1NC(=O)Nc1ccc2c(c1)C(=O)N([C@H](C)CO)C[C@H](C)[C@H](CN(C)Cc1ccncc1)O2
→ 13.0, 0.6
CCS(=O)(=O)N1CC(=O)N2[C@H](CO)[C@@H](c3ccc(-c4ccc(F)cc4)cc3)[C@H]2C1
→ -1.5, -2.2
O=C(NC1CCCC1)N1CCCCN2[C@H](CO)[C@H](c3ccc(-c4ccncc4)cc3)[C@@H]2C1
→ 4.7, -3.2
C[C@@H]1CN([C@H](C)CO)C(=O)c2cc(-c3ccc(F)cc3)cnc2O[C@@H]1CN(C)CC1CCOCC1
→ -5.3, -2.1
CCC(=O)N1C[C@H](C)[C@@H](OC)CN(C)C(=O)c2cc(NC(=O)c3cnccn3)ccc2OC[C@@H]1C
→ 6.2, 5.6
C[C@@H]1CN([C@@H](C)CO)C(=O)c2cc(NS(=O)(=O)c3cccs3)ccc2O[C@@H]1CN(C)C(=O)Nc1ccccc1
→ 15.7, 6.0
COc1cccc(NC(=O)N2C[C@@H](O)COC[C@H]3O[C@H](CC(=O)N(C)C)CC[C@@H]32)c1
→ 3.6, -1.8
C[C@H]1CN([C@@H](C)CO)C(=O)c2cccc(NS(=O)(=O)c3ccc(Cl)cc3)c2O[C@H]1CN(C)C(=O)Nc1ccc(C(F)(F)F)cc1
→ ?, .
O=C(c1ccc(F)cc1)N1CC[C@H]2[C@H](CO)Nc3ccc(-c4ccccc4F)cc3[C@H]21
→ 0.1, 0.2
O=S(=O)(c1ccccc1F)N1CCCCN2[C@@H](CO)[C@H](c3ccc(-c4cncnc4)cc3)[C@@H]2C1
→ 6.4, 0.5
COc1ccc(NC(=O)N(C)C[C@H]2Oc3cc(-c4ccncc4)ccc3S(=O)(=O)N([C@H](C)CO)C[C@@H]2C)cc1
→ -6.7, -0.4
COCC(=O)Nc1ccc2c(c1)C(=O)N(C)[C@@H]1CC[C@H](CC(=O)Nc3ccccc3)O[C@H]1CO2
→ -4.8, 2.2
C[C@@H]1CN([C@@H](C)CO)C(=O)c2cc(C3=CCCC3)cnc2O[C@@H]1CN(C)Cc1cccnc1
→ 0.4, -1.8
CCS(=O)(=O)N1CCCCN2[C@@H](CO)[C@H](c3ccc(-c4cccc(C#N)c4)cc3)[C@@H]2C1
→ 1.8, -5.0
COc1ccc(S(=O)(=O)N(C)C[C@H]2OCCCC[C@@H](C)Oc3ccc(NC(=O)Nc4cccc5ccccc45)cc3C(=O)N([C@H](C)CO)C[C@H]2C)cc1
→ 23.3, 16.1
N#C[C@@H]1[C@H](c2ccccc2-c2cccc(F)c2)[C@H](CO)N1S(=O)(=O)c1cccc(F)c1
→ -30.6, -22.0
C[C@H](CO)N1C[C@H](C)[C@H](CN(C)C(=O)Nc2ccc(C(F)(F)F)cc2)Oc2ccc(NC(=O)Nc3ccc(C(F)(F)F)cc3)cc2C1=O
→ 3.7, 15.2
O=C1CN(Cc2ccccc2)C[C@H]2[C@H](c3ccc(-c4ccccc4F)cc3)[C@H](CO)N12
→ 8.7, 12.9
COc1ccccc1CNC(=O)C[C@@H]1C[C@@H]2c3cc(NC(=O)NC4CCCC4)ccc3O[C@@H]2[C@@H](CO)O1
→ -6.5, -7.3
CCC(=O)N(C)C[C@@H]1Oc2cc(-c3cncnc3)ccc2S(=O)(=O)N([C@@H](C)CO)C[C@@H]1C
→ 19.7, 14.2
O=C(C[C@@H]1C[C@H]2c3cc(NS(=O)(=O)c4ccc(F)cc4)ccc3O[C@H]2[C@H](CO)O1)NCc1ccc(-c2ccccc2)cc1
→ ?, .
C[C@@H]1CN([C@@H](C)CO)C(=O)Cc2cc(NS(=O)(=O)c3ccc(F)cc3)ccc2O[C@H]1CN(C)C(=O)NC1CCCCC1
→ -7.9, 3.4
C[C@@H]1CN([C@@H](C)CO)C(=O)c2cccc(N(C)C)c2O[C@@H]1CN(C)Cc1ccc(Cl)c(Cl)c1
→ -21.5, -11.9
CCCC(=O)N1CC2(CN(S(=O)(=O)CC)C2)c2c(n(C)c3cc(OC)ccc23)[C@H]1CO
→ 10.3, -0.2
CC(C)(C)S(=O)N1Cc2cc(C(=O)O)nc(-c3cccc(-c4cc5ccccc5o4)c3)c2[C@@H]1CCO (stereo partly specified)
→ 13.9, 37.4
COCC(=O)Nc1ccc2c(c1)[C@H]1C[C@H](CC(=O)NCC3CC3)O[C@H](CO)[C@H]1O2
→ 2.1, -1.2
CC=Cc1ccc2n(c1=O)C[C@@H]1[C@@H](CO)[C@H](C(=O)NCc3ccccc3)[C@H]2N1CC (mixture of isomers)
→ -10.5, -1.5
COc1ccc(NC(=O)Nc2ccc3c(c2)C(=O)N([C@@H](C)CO)C[C@H](C)[C@@H](CN(C)Cc2ccc(C(F)(F)F)cc2)OCCCC[C@H](C)O3)cc1
→ -19.5, -18.7
CC(C)C#Cc1ccc([C@@H]2[C@@H](C#N)N(C(=O)C3CCC3)[C@@H]2CO)cc1
→ 4.8, -1.1
CNC[C@@H]1OCCCC[C@H](C)Oc2ccc(NC(=O)Nc3c(C)noc3C)cc2C(=O)N([C@@H](C)CO)C[C@@H]1C
→ 13.4, 3.6
O=C(C1CC1)N1CC(=O)N2[C@H](CO)[C@H](c3ccc(Br)cc3)[C@@H]2C1
→ -13.4, -1.2
COc1ccccc1CN(C)C[C@H]1OCc2cn(nn2)CCCC(=O)N([C@H](C)CO)C[C@H]1C
→ -7.7, -5.6
Cc1ccc(S(=O)(=O)N(C)C[C@H]2Oc3ccc(NC(=O)c4ccncc4)cc3C(=O)N([C@@H](C)CO)C[C@@H]2C)cc1
→ 0.2, 1.3
CCC(=O)Nc1ccc2c(c1)OC[C@@H](C)N(Cc1ccc(-c3ccccn3)cc1)C[C@@H](C)[C@H](OC)CN(C)C2=O
→ -26.9, -13.6
COc1ccc2c3c(n(C)c2c1)[C@H](CO)N(S(C)(=O)=O)CC31CCN(C(=O)C2CC2)CC1
→ 5.8, 0.5
CC(C)NC(=O)Nc1ccc2c(c1)C(=O)N([C@@H](C)CO)C[C@@H](C)[C@H](CN(C)Cc1ccc(-c3ccccc3)cc1)O2
→ -18.3, -14.7
C[C@H](CO)N1C[C@H](C)[C@@H](CN(C)Cc2ccccc2F)Oc2cc(C#CCN(C)C)ccc2S1(=O)=O
→ ?, .
Cc1ccccc1S(=O)(=O)NCC[C@H]1CC[C@H](NC(=O)Nc2cccc(Cl)c2)[C@@H](CO)O1
→ -10.1, -2.0
COc1cccc(CN2[C@@H](CO)[C@@H]3c4ccccc4N(C(=O)c4ccncc4)C[C@@H]32)c1
→ 18.6, 12.0
Cc1ccc(S(=O)(=O)NCC[C@H]2CC[C@@H](NC(=O)c3ccccn3)[C@@H](CO)O2)cc1
→ -3.9, -1.2
CCCNC(=O)Nc1ccc2c(c1)OC[C@H](C)N(CC1CCCC1)C[C@@H](C)[C@@H](OC)CN(C)C2=O
→ -0.9, 2.6
CO[C@H]1CN(C)C(=O)c2cc(C#N)ccc2OC[C@H]2O[C@H](CC[C@H]2OC)CCN(C)C(=O)[C@H]1C
→ 2.6, -2.3
N#C[C@@H]1[C@@H](c2ccccc2C2=CCCC2)[C@H](CO)N1C(=O)C1CCOCC1
→ -6.8, -2.1
C[C@@H]1CN([C@@H](C)CO)C(=O)c2cc(NC(=O)Nc3ccc(C(F)(F)F)cc3)ccc2O[C@@H]1CN(C)Cc1ccc(Cl)c(Cl)c1
→ ?, .
C[C@@H]1CN([C@H](C)CO)C(=O)c2cc(NC(=O)C3CCCCC3)ccc2O[C@@H]1CN(C)C(=O)Nc1ccc(F)cc1
→ 2.4, -1.4

These rows are one share of the data (hit frequency here may not be typical).
